# Compound activity deposited in PubChem BioAssay by PCMD.
# Calb biofilm kill – mixtures killing C. albicans biofilm; C. albicans biofilm persisters + clotrimazole, fluorescence viability; primary screen in compound mixtures of four per well; inhibition, % at 7.6 µM; actives 0.02% (n = 120,000); AID 1242;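 active = inhibition above 30.3% in the primary screen of four-compound pools, then above 30% when the compound was retested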;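 note: compounds exposed to preformed 24 h biofilms for 48 h; the number belongs to the whole pool; some results filed as inactive read as strong as hits; inactives centre near 12; 0% = biofilm with clotrimazole alone and 100% = kill control; retested singly at about 60 µM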
#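 System: C. albicans CAF4-2 wild-type biofilms; Medium: RPMI/MOPS medium, pH 7.0; Reagent: Clotrimazole, 50 µg/mL; Times: biofilm formation 24 h, compound exposure 48 h, 37 °C; Detection: 2-h Alamar Blue fluorescence, 535/590 nm excitation/emission; Evaluation: percent inhibition of biofilm viability.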
# * marks the source's active call; other numbers are inactive results. Only part of the results is shown; rates above refer to the full screens.
SMILES	Calb biofilm kill
O=C(Nc1ccc(O)c(C(=O)O)c1)Oc1ccccc1	-0.5
Cc1ccc(N=Cc2c(O)cc(C)oc2=O)c(C)c1	17.1
COc1cc(Cl)ccc1NC(=S)N(CCCN1CCOCC1)Cc1cn(C)c2ccccc12	3.6
CC(C)NC(=O)CN1CCN(Cc2nc(C(c3ccccc3)c3ccccc3)no2)CC1	16.9
CC(C)CN1CCC(CNC(=O)CCc2nnc(Cc3c[nH]c4ccccc34)o2)CC1	6.9
CC(C)(O)C#Cc1ccc(CN2CCN(C3CCCCC3)C(CCO)C2)cc1 (stereo not given)	10.5
COc1cc2c(cc1OC)CN(C(=S)NC(=O)c1ccccc1)CC2	15.9
Cn1c(Cc2ccccc2)nnc1SCC(=O)Nc1cccc(S(=O)(=O)NC2=NCCCCC2)c1	19.9
Nc1n[nH]c(CO)n1	15.0
CC1=NN(C(C#N)c2ccccc2)C(C)(C)C1 (stereo not given)	17.7
COc1ccc(CNC(=O)CCc2c(C)nc3cc(-c4ccccc4OC)nn3c2C)cc1	6.5
Cc1nc(C(=O)N2CCc3c([nH]c4ccccc34)C2c2cc(F)ccc2F)cs1 (stereo not given)	-12.9
CCOC(=O)c1c(NC(=O)Cn2ccsc2=N)sc(C)c1C	-4.9
O=C1CCN(C(=O)c2cccs2)c2ccccc21	-0.9
O=C(CN1CCCc2ccccc21)Nc1ccc(F)cc1[N+](=O)[O-]	15.1
Cc1cc(C)cc(NC(=S)N2CCN(c3ncccn3)CC2)c1	6.6
CCn1nnnc1SCC(=O)Nc1ccc2c(c1)OCCO2	15.1
Nc1ccc(C(=O)OCC(=O)NC2CC2)cc1[N+](=O)[O-]	-0.4
CC(C)c1ccccc1NC(=S)NCCCn1ccnc1	4.3
CCOC(=O)c1sc2nc(C)n(N)c(=O)c2c1C	12.8
O=C(COC(=O)Cn1cnc2ccccc2c1=O)NCC12CC3CC(CC(C3)C1)C2	13.6
Cc1cccc(-c2nnc(SCCC(=O)N3CCOCC3)o2)c1	6.9
Cc1cccc(N2CCN(C(=O)C3COc4ccccc4O3)CC2)c1C (stereo not given)	16.4
COc1ccc(-c2nnn(Cc3ccccc3F)n2)cc1	16.7
O=C(COC(=O)c1ccc(F)c(S(=O)(=O)N2CCCCC2)c1)NCc1ccc(F)cc1	-4.2
Cc1ccnc(N2CCCC(C(=O)NCc3cccs3)C2)n1 (stereo not given)	8.4
CCc1c(C)nc(SCC(=O)Nc2ccc3c(c2)OCCO3)[nH]c1=O	27.0
CSc1cccc(CN2CCN(Cc3ccc(F)c(F)c3)C(CCO)C2)c1 (stereo not given)	15.0
O=C(Oc1ccc2ccc(O)cc2c1)C1CCCCC1	10.5
COC(=O)C(NS(=O)(=O)c1ccc(F)cc1)c1ccccc1 (stereo not given)	11.1
CCN(CC)S(=O)(=O)c1ccc(C(=O)N2CCN(CCN3C(=O)c4cccc5cccc(c45)C3=O)CC2)cc1	1.4
O=S(=O)(Cc1ccccc1Cl)N1CCCC1	12.2
Cc1cccc(N2CCN(Cc3nc(-c4ccc(F)cc4F)oc3C)CC2)n1	6.2
Cn1c2c(c(=O)n(C)c1=O)C(c1ccccc1F)C(C#N)=C(N)O2 (stereo not given)	15.1
COc1cccc(NC(=O)NCc2ccc(F)cc2)c1	6.3
COC(=O)Nc1[nH]ncc1[N+](=O)[O-]	21.0
Cc1cccc(C)c1NC(=O)COC(=O)c1ccccc1[N+](=O)[O-]	0.9
CCCN1CCC(=O)N([C@H](CSc2ccc(OC)cc2)Cc2ccccc2)CC1	9.5
Cc1ccc(CN2CCN(Cc3ccccn3)CC2CCO)cc1 (stereo not given)	15.0
O=[N+]([O-])c1cnc2nc(-c3ccncc3)nn2c1O	8.6
CC(C)c1ccc2[nH]c(O)c(N=NC(=O)c3cccc(S(=O)(=O)Nc4ccc(Cl)cc4)c3)c2c1	10.4
C#CCn1c(=NC(=O)CN2C(=O)CCC2=O)sc2cc(S(N)(=O)=O)ccc21	8.9
C/C=C/c1ccc(OCC(=O)OCc2csc(Nc3ccc(C)cc3)n2)c(OC)c1	15.6
Cc1ccc(OCC(=O)N2CCc3ccccc32)cc1	11.2
COc1ccc(C(=O)C2CCCN(C(=O)c3cnsn3)C2)c(C)c1 (stereo not given)	32.9
Cc1ccc(NP(=O)(c2ccc(N(C)C)cc2NC(=O)c2cccs2)N2CCOCC2)cc1Cl (stereo not given)	6.3
COc1ccc(C2CCCN2C(=S)Nc2ccc(C)cc2C)cc1OC (stereo not given)	11.4
Cc1ccc(C)c(NC(=O)CCn2cnnn2)c1	24.8
COc1cccc(N2CC(=O)N(NC(=O)CSc3nc(C)cc(C)c3C#N)CC2=O)c1	19.6
COc1ccc(CCN=C2SCC(=O)N2Cc2ccccc2)cc1OC	18.3
CCOC(=O)c1c(NC(=O)CN2CCN(C)CC2)sc(C(=O)Nc2ccccc2)c1C	10.7
CCOC(=O)c1cc2c(C)[nH]c(C)c2cc(C(=O)OCC)c1=O	13.2
COc1ccc(NC(=O)O/N=C/c2c(C)nn(C(C)(C)C)c2C)cc1	25.3
C/C(CCc1ccccc1)=N\NC(=O)COc1ccccc1C	10.8
O=C(N/N=C/c1cn(-c2ccccc2)nc1-c1ccc2c(c1)OCCO2)c1ccncc1	9.6
CCOc1ccccc1NC(=O)Nc1cccc(NC(C)=O)c1	21.6

# More compounds follow.
SMILES	Calb biofilm kill
Cc1nc(C)c(C(=O)N/N=C/c2cc(Br)ccc2O)s1	4.0
COc1ccc(C)cc1NC(=O)NCc1ccc(F)cc1	17.9
Nc1nc(C23CC4CCC(CC(C4)C2)C3)cs1	18.0
CCOC(=O)c1cc2[nH]c3ccccc3c2[n+](-c2ccc([N+](=O)[O-])cc2)c1C	18.2
N#CCSc1nccc(/C=C/c2ccccc2)n1	7.7
Cc1nc2c3c(sc2c(=O)[nH]1)NC(=O)CC3c1ccccc1Cl (stereo not given)	2.3
COc1ccc(CCNC(=O)COc2ccc(S(=O)(=O)N3CCCC3)cc2)cc1	34.0
CCC(C)(C(=O)NC1CCCC1)N(Cc1cccs1)C(=O)c1ccc2c(c1)OCO2 (stereo not given)	16.3
COc1ccc(S(=O)(=O)N2CCN=C2SCc2cccnc2)cc1	2.0
CCOc1cc(C(=O)Nc2ccccc2N2CCOCC2)ccc1OCC(=O)N1CCCCC1	18.8
COC(=O)Nc1ncc(CN2CCC(c3ccccc3)CC2)s1	5.4
CC(=O)NCCOc1nc(N(C)C)nc(N2CCCCC2)n1	12.7
COc1ccc(NCc2nnc(SCC(=O)NNC(=O)c3ccc(C)cc3)n2C)cc1	3.5
CSc1nc(C)cc(Oc2ccc(=O)[nH]n2)n1	8.5
O=C(NCc1nc(-c2ccccc2)cs1)c1ccccc1	9.8
CN(C)S(=O)(=O)c1cccc(NC(=O)COC(=O)c2cc(-c3cccc(Br)c3)nc3ccccc23)c1	16.2
O=C(Cc1cccc2ccccc12)NN1C(=O)CSC1=S	12.0
O=C1C[C@@H](c2ccc(O)cc2)Oc2cc(O)cc(O)c21	13.2
CCCNS(=O)(=O)c1ccc(OCC(=O)N2CCOCC2)cc1	15.8
CCOc1ccc(S(=O)(=O)NCCC(=O)OCC(=O)Nc2cc(C)on2)cc1	9.6
CCN(CC)CCN(C(=O)c1ccc(C(C)=O)cc1)c1nc2ccc(Cl)cc2s1	14.4
COc1cc(NC(=O)COC(=O)c2ccccc2F)cc(OC)c1	27.7
CC1CCN(S(=O)(=O)c2ccc(S(=O)(=O)NCc3cccnc3)cc2)CC1	28.6
Cc1cccc(OCCc2c(C)[nH]c(=S)[nH]c2=O)c1	11.8
Cc1ccccc1-n1c(SCC(=O)c2c(N)n(C)c(=O)n(C)c2=O)nc2sc3c(c2c1=O)CCCC3	-9.8
CN(CC(=O)Nc1sc2c(c1C#N)CCCCC2)Cc1nc2ccccc2c(=O)[nH]1	13.7
Cc1cccc(C2c3[nH]c4ccccc4c3CCN2Cc2ccc(C)s2)n1 (stereo not given)	11.3
O=C(CN1C(=O)/C(=C\c2ccc(F)cc2)Oc2ccccc21)NCc1ccco1	18.5
CN1CCN(Cc2cn(C)nc2-c2ccccc2F)CC1c1ccccc1 (stereo not given)	-2.2
CCOc1ccccc1C(=O)Nc1ccccc1-c1ccccc1	11.3
O=C(CCn1c(=O)sc2ccccc21)NCc1ccc2c(c1)OCO2	19.4
CC(=O)N1N=C(C)CC1c1ccc(O)cc1 (stereo not given)	9.1
CCCc1cc(=O)[nH]c(SCC(=O)Nc2nc(-c3ccccc3)cs2)n1	8.4
COP(=O)(OC)c1nc(-c2cccc3ccccc23)oc1NCc1ccccc1	10.1
Oc1c(C=Nc2ccccc2Cl)[nH]c2ccccc12	20.8
O=C(O)c1cccc(N/N=C/c2cccs2)c1	1.0
COc1c(Cl)ccc(Cl)c1C(=O)OCC(=O)O	2.7
CS/C(=N\S(=O)(=O)c1cccs1)Nc1cccc(Cl)c1C	19.0
COc1ccc(NC(=O)C2CCCN(c3cc(C)nc4ncnn34)C2)cc1 (stereo not given)	11.9
O=C(N/N=C/c1c[nH]c2ccccc12)c1sc2ccccc2c1Cl	-4.5
Clc1ccc(-c2cc(-c3ccccn3)on2)c(Cl)c1	19.9
N#CCC(=O)N/N=C/c1ccc(SCC(=O)Nc2ccccc2)o1	12.1
CSc1nc(C)nc(C2CC2)c1C#N	26.1
O=C(/C=C/c1ccco1)NCc1ccco1	9.7
Cc1cc(C)cc(NC(=S)Nc2ccc(Cl)c(Cl)c2)c1	13.9
Cc1ccc(NC(=O)C2CCN(C(=O)NC3CCCCC3)CC2)cc1	23.6
CCC(C)N(C)C1CCN(C(=S)Nc2ccc(OC)cc2)CC1 (stereo not given)	7.9
O=[N+]([O-])c1ccc(Oc2cnc3ccccc3n2)cc1	9.6
COc1ccc(NC(=O)COC(=O)Cc2ccccc2[N+](=O)[O-])cc1OC	6.6
CCn1c(CNC(=O)c2cccs2)n[nH]c1=S	11.0
O=C(CSc1ccccc1[N+](=O)[O-])NC1CCS(=O)(=O)C1 (stereo not given)	20.4
CCc1ccc(C2C(C#N)=C(N)N(N3CCOCC3)C3=C2C(=O)CC(C)(C)C3)s1 (stereo not given)	13.4
COc1ccccc1CSc1ncc(-c2ccc([N+](=O)[O-])cc2)[nH]1	12.2
CCn1c(O)c(C=Nc2ccccc2)sc1=O	-7.0
Cc1ccc([N+](=O)[O-])cc1N=C(c1ccc([N+](=O)[O-])cc1)N1CCOCC1	10.1
Cc1ccc(NC(=O)CSc2ccc(-c3ccccn3)nn2)cc1	15.4

# The last 2 compounds of the part above come first, to join the parts.
SMILES	Calb biofilm kill
Cc1ccc([N+](=O)[O-])cc1N=C(c1ccc([N+](=O)[O-])cc1)N1CCOCC1	10.1
Cc1ccc(NC(=O)CSc2ccc(-c3ccccn3)nn2)cc1	15.4
CCOC(=O)/C(C#N)=C/c1ccc(OC(=O)c2ccco2)c(OCC)c1	13.7
Cc1ccc(CNS(=O)(=O)c2ccc(C(F)(F)F)cc2)n1C	3.5
CCCc1nc2ccccc2n1C(=S)SC	15.3
Cc1ccc(C)c(NS(=O)(=O)c2ccc3c(c2)Cc2cc(S(=O)(=O)Nc4cc(C)ccc4C)ccc2-3)c1	4.3
Cc1ccc(-c2csc(NC(=O)CN3C(=O)CCC3=O)n2)cc1	19.0
O=C(c1ccccn1)c1ccc2ccccc2n1	17.9
CCN(C(=S)Nc1cccc(C)c1)c1ccccc1	13.0
O=C(NCc1cccs1)C1CC(c2ccc(Cl)cc2)=NO1 (stereo not given)	21.9
CC1CN(CCCSc2ccc(Cl)cc2)CC(C)O1 (stereo not given)	19.7
CNC(=O)CN(c1cc(OCCOC)c(Cl)cc1Cl)S(=O)(=O)c1ccccc1	15.5
COc1ccc(C(=O)c2nccc3ccccc23)cc1	6.3
Cc1cc(NC(=O)CSc2nc(C(C)C)nc3sc4c(c23)CCC(C)C4)no1 (stereo not given)	10.5
CC(C)N=c1c([N+](=O)[O-])nn(C)n1O	19.9
CC(C)N(C(=O)COC(=O)c1ccc([N+](=O)[O-])cc1)c1ccccc1	9.3
CC1CCCC(NC(=O)CCCn2c(=S)[nH]c3ccccc3c2=O)C1C (stereo not given)	20.3
COc1ccccc1/C=C(/C(=O)OCC(=O)NCc1ccccc1)c1ccccc1	8.9
c1ccc(CCNc2ccnc3cc4ccccc4cc23)cc1	11.8
CN1CCN(CC(O)COC(c2ccccc2)c2ccccc2)CC1 (stereo not given)	9.8
CCOC(=O)N1CCC(NS(=O)(=O)c2ccc(C)c(Cl)c2)CC1	7.9
Cc1cc([N+](=O)[O-])nn1Cc1ccc(C(=O)N/N=C/c2ccc(F)cc2)cc1	27.5
Cc1cc(C(=S)N2CCOCC2)c(C)n1-c1ccc(F)cc1	7.5
CCOc1ccc(NS(=O)(=O)c2cc(NC(=O)CCS(=O)(=O)c3ccc(C)cc3)ccc2OC)cc1	9.6
O=Cc1c(-c2ccc(F)cc2)nc2ccccn12	12.2
Cc1c(C(=O)NNS(=O)(=O)c2ccccc2)sc(=S)n1C	24.0
COc1ccc(C(=O)O)cc1S(=O)(=O)Nc1ccc(C)cc1	14.9
CCN(CC)CCn1c(=N)n(CC(=O)c2ccc(Br)s2)c2ccccc21	19.7
CC1(C)CC(=O)C(C=Nc2ccc(O)c(N=CC3=C(O)CC(C)(C)CC3=O)c2)=C(O)C1	7.5
